Screens from PubChem BioAssay.
HSV augment = HSV replication enhancement | hit rate 0.005% among 220,000 | AID 1956 | HSV replication augmentation in cells, fold increase | maximum fold increase;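 active = peak rise of 1.5-fold or more in the series; inconclusive = self-fluorescent or not available for retest; tested in PC3 cells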;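 also: first round at 10 µM; read as green reporter fluorescence; hits show the peak of a series up to 25 µM; 1 = signal of infected wells without compound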
PKD1 kinase inh = PKD1 (human) kinase inhibition; Q15139; PKD1 kinase fluorescence polarization assay; inhibition, %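 (about 10 µM by stock and volumes)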; hit rate 0.056% among 200,000; AID 797;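 active = inhibition of 50% or more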;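 also: controls were vehicle for no effect and a reference inhibitor for full effect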
GALR2 ag = agonists of human galanin receptor 2 (GALR2) | AID 803 | GALR2-expressing cells, agonist activation read-out | hit rate 0.48% among 140,000 | O43603 | activation, %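 (tested at 5 µM)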;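 active = above mean plus 3 SD of all compounds, about 5% in these data, not always enough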;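 also: 0% = vehicle buffer wells and 100% = reference agonist at full effect; tested in CHO reporter cells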
Target sequence (O43603 whole entry, looked up): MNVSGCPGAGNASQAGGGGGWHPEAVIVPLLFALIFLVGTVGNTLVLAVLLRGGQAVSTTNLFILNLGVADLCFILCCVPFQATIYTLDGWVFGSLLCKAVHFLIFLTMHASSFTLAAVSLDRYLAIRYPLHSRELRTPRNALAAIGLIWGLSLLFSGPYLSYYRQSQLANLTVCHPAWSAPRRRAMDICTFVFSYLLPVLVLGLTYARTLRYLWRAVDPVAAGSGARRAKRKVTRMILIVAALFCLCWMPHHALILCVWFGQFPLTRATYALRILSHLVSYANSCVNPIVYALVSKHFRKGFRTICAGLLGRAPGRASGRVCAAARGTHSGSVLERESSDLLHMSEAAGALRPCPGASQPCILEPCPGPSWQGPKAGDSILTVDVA
INS promoter inh = TRM-6 insulin promoter activity inhibition; TRM-6 cells (human fetal islet line), insulin promoter-eGFP reporter, imaging; reporter expression induced with tamoxifen; inhibition, % at 2 µM; hit rate 0.9% among 130,000;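 active = inhibition above the mean plus 3 SD, with well images judged a real hit on visual review, cut at about 60% in these data, passing the limit was not always enough; inconclusive = inhibition over the cutoff but images rejected on review; inactive = inhibition not above the cutoff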
RGS16-Gao = RGS16-Galphao interaction regulator (human) | hit rate 0.38% among 220,000 | O15492+P09471 | binding response (% of control), % at 10 µM | bead-based flow cytometry RGS16-Galphao binding, fluorescence; actives lie on both sides;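 active = below 25% or above 175%, edge rows of some plates excepted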;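 also: Galphao activated by GDP with aluminum fluoride before binding; 100% = wells without compound and 0% = beads without RGS; some results beyond the cut were filed as inactive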
Target sequence (O15492 whole entry, looked up): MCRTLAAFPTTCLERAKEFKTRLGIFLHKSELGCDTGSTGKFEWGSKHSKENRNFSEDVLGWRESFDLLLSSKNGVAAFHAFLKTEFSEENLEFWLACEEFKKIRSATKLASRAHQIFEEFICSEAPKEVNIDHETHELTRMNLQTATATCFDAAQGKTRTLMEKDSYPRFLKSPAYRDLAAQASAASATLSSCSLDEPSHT
Target sequence (P09471 whole entry, looked up): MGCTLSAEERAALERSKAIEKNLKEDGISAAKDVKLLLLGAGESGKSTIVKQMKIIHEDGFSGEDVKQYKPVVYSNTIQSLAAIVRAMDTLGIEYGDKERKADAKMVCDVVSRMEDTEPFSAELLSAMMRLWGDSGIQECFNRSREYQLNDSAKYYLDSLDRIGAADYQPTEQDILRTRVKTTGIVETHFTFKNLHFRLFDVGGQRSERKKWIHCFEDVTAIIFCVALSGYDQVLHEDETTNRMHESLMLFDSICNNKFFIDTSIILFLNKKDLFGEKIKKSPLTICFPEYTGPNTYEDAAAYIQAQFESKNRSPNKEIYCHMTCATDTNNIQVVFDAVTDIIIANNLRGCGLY
INS promoter inh cell count = second read-out of INS promoter inh, no call of its own (marks repeat the call); normalized cell count, %; measured here: cell count, toxicity; reference of the scale not given here;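 cells exposed to compound for 48 h; stained nuclei by imaging scaled within each plate; lower means fewer cells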
HSV augment primary fold = further read-out of HSV augment, marked with its call; fold increase; compound at 10 µM; measured here: primary screen fold increase 10 uM; tested in PC3 cells;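 GFP signal in the first replicate; 1 = infected wells without compound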
* marks the source's active call; other numbers are inactive results; i = inactive; u = inconclusive; x = no result given.

SMILES	HSV augment	HSV augment primary fold	PKD1 kinase inh	GALR2 ag	INS promoter inh	INS promoter inh cell count	RGS16-Gao
COc1cc(C(Nc2ccc3c(c2)OCO3)C(=O)NC2CCCCC2)cc(OC)c1OC (stereo unspecified)	i	0.89	1.3	-3.4	16.2	57.4	92.5
Cc1cc(C)c2c(N)c(C(=O)NN3CC(=O)N(c4ccccc4F)CC3=O)sc2n1	i	0.957	-9.7	-3.0	-14.3	103.5	107.7
CCC(CC)NC(=O)Cc1ccc(F)cc1	i	1	1.8	x	x	x	97.7
COC(=O)C1C(=O)NC(SC)=C(C#N)C1c1ccccc1F (stereo unspecified)	i	0.95	-8.4	-2.4	-32.0	85.3	102.4
Cc1ccccc1N1CCN(Cc2c(C#N)c3ccccc3n2C)CC1	i	0.96	-2.0	0.5	x	x	127.2
COc1ccc(/C=C/C(=O)Nc2ccc3nc4n(c(=O)c3c2)CCCC4)cc1	i	0.98	2.2	x	x	x	89.2
COc1ccc(C2N(c3cc(C)on3)C(=O)C3CCCN32)cc1OC (stereo unspecified)	i	0.79	-39.9	3.1	26.7	97.9	102.5
CCN(CC)c1ccc(C=C(c2nnnn2-c2ccc(C)cc2)c2nnnn2-c2ccc(C)cc2)cc1	u	x	0.9	-0.2	-64.5	90.5	87.1
CCOC(=O)C(NC(=O)c1ccccc1)(Nc1cc(C)on1)C(F)(F)F (stereo unspecified)	i	0.9	-4.9	-0.9	-13.9	51.8	107.8
C=CCOC(=O)C1=C(C)OC(N)=C(C#N)C1c1c(C)nn(-c2ccccc2)c1Cl (stereo unspecified)	i	0.91	-8.1	0.3	x	x	93.5
O=C(c1ccc(CS(=O)(=O)Cc2ccc(Cl)cc2)o1)N1CCCC1	i	0.91	-2.7	-3.8	x	x	102.0
CCC(=O)N1CCC2(CC1)Oc1ccc(F)cc1C(=O)C21CC(c2ccccc2)=NO1 (stereo unspecified)	i	0.98	x	x	x	x	103.6
NC(=O)COC(=O)CNC(=O)c1ccc(Cl)cc1	i	0.89	-0.8	-2.1	x	x	100.1
CNC(=S)N/N=C/c1cn(Cc2ccc(F)cc2)c2ccccc12	x	x	-2.2	0.7	x	x	100.8
Cc1ccc(CN(C(=O)c2ccco2)C(C(=O)NC2CCCC2)c2cccnc2)cc1 (stereo unspecified)	i	0.96	-0.8	x	x	x	105.5
Cc1nc(C(C)N(C)Cc2nc(-c3ccc4c(c3)OCO4)no2)c(C)s1 (stereo unspecified)	i	0.93	0.0	x	x	x	84.1
CCCn1c(SCC(=O)c2cc(C)c(C)cc2C)n[nH]c1=O	i	0.997	0.0	-2.5	-221.4	55.4	101.4
CN1CCN(C/C(=C2/N=C(c3ccccc3)OC2=O)N(C)C)CC1	i	0.75	-8.8	-1.0	21.4	59.7	103.9
COCC(O)CSc1c([N+](=O)[O-])nc(C)n1Cc1ccc(OC)c([N+](=O)[O-])c1 (stereo unspecified)	i	0.92	-7.7	-1.3	51.4	179.7	104.3
CCN1CCCC1CNC(=O)c1cn(C)c2ccc(S(=O)(=O)N3CCCCCC3)cc2c1=O (stereo unspecified)	i	0.86	2.1	-0.6	7.7	97.0	102.6
O=C(COc1ccccc1C(=O)O)Nc1nc2ccc([N+](=O)[O-])cc2s1	i	1.23	x	x	x	x	75.8
Cc1ccccc1NC(=O)Nc1ccccc1C(N)=O	i	0.86	3.9	x	x	x	99.3
CCCSc1nnc2nc3c(nn12)c1ccccc1n3C	i	0.67	-2.8	-0.2	x	x	100.7
CSC1=NCCN1C(=O)c1ccco1	i	0.81	-7.4	-1.5	x	x	101.2
O=C(c1cccs1)N1CCN(c2ncccn2)CC1	i	1.04	-3.7	-4.9	x	x	102.7
Cc1ccc(N(C(=O)c2csnn2)C(C(=O)NC(C)(C)C)c2cccs2)cc1 (stereo unspecified)	i	0.97	3.7	-0.8	10.0	105.7	102.2
C#CC(C)(CC)NC(=O)Cn1nnc(-c2cccc(C(F)(F)F)c2)n1 (stereo unspecified)	i	0.83	-4.5	x	-11.1	90.8	100.0
Cc1ccn2c(C=O)c(-c3ccc(F)cc3)c(C=O)c2c1	i	1.07	-4.8	x	x	x	107.2
CCOc1ccccc1CN1CCN(Cc2nc3ccccc3s2)CC1CCO (stereo unspecified)	i	0.99	-5.5	x	4.3	171.5	106.3
O=C1NC(=O)/C(=C/c2ccc(O)cc2)S1	i	0.95	9.0	x	35.7	185.6	85.6
COc1ccc(-c2[nH]ncc2CN2CCC(OCc3ccccn3)CC2)c(F)c1	i	1.12	x	x	x	x	104.0
CCCC1=C(C(=O)OCC)C(c2ccco2)n2ncnc2N1 (stereo unspecified)	i	0.9	x	x	x	x	56.3
CCOC(=O)c1ccc(CNS(=O)(=O)c2c(C)ccc3nsnc23)o1	i	0.953	-2.3	-2.8	-5.6	95.8	109.3
O=c1cc(CSc2nnc(C3CC3)n2Cc2ccccc2)nc2sccn12	i	1.04	-9.5	x	x	x	100.6
N#C/C(=C/c1ccc(Oc2ccc([N+](=O)[O-])cn2)cc1)C(=O)N1CCOCC1	i	1.08	-2.1	-1.0	23.7	151.3	102.0
O=C(CSc1ncnc2c1nnn2Cc1ccccc1)NC1CCCC1	i	0.81	-2.0	x	0.0	100.7	94.8
O=C(c1ccccc1)N1CCCCC(S(=O)(=O)c2ccc3ccccc3c2)C1=O (stereo unspecified)	i	0.96	-1.3	-1.5	-3.6	79.5	103.0
Cc1oc2c(CN(C)C)c(O)ccc2c(=O)c1-c1cscn1	i	0.83	4.6	-0.7	x	x	109.5
CN(N)C(=S)NCc1ccccc1	i	1.03	-7.5	-0.9	-15.4	98.8	103.1
Cc1ccc(C(=O)CCNc2cccc(Br)c2)o1	i	1	-1.8	-2.3	-33.3	104.4	101.3

The final 2 entries of the part before come first, to join the parts:
SMILES	HSV augment	HSV augment primary fold	PKD1 kinase inh	GALR2 ag	INS promoter inh	INS promoter inh cell count	RGS16-Gao
CN(N)C(=S)NCc1ccccc1	i	1.03	-7.5	-0.9	-15.4	98.8	103.1
Cc1ccc(C(=O)CCNc2cccc(Br)c2)o1	i	1	-1.8	-2.3	-33.3	104.4	101.3
CCN1CCN(C(=O)c2ccc3c(c2)N(Cc2ccc(F)cc2)C(=O)c2ccccc2S3=O)CC1 (stereo unspecified)	i	0.96	-11.1	0.3	x	x	96.1
COc1ccc(C)cc1NC(=O)C1C2C=CC(C2)C1C(=O)O (stereo unspecified)	i	0.9	-2.6	-3.2	13.6	146.3	79.5
COc1ccc(CN(CCN2CCOCC2)C(=O)c2c(F)cccc2F)cc1OC	i	0.88	6.5	0.6	x	x	98.3
O=C(NC(=S)Nc1ccccc1Cl)c1cncc(C#Cc2ccccc2)c1	i	1.05	x	x	x	x	103.1
Cc1ccccc1NC(=O)COc1nsnc1N1CCOCC1	i	0.8	-0.1	-0.8	27.0	104.5	103.4
CCN(CC)c1ccc(C2C3CCCCC3(O)CCN2C(=O)c2cccs2)cc1 (stereo unspecified)	i	0.97	3.1	-0.4	x	x	100.1
Cc1ccc(-c2nc3ncccc3o2)cc1NC(=O)c1cc2ccccc2o1	i	1.08	5.7	-2.2	42.9	86.3	98.0
O=C(COC(=O)c1ccccc1Oc1ccccc1)NC1CC1	i	1.04	-0.5	x	x	x	101.9
COc1ccccc1NS(=O)(=O)c1ccc(C)c(NC(=O)NC2CCCCC2)c1	i	0.93	1.2	-0.7	16.1	93.9	93.0
Cc1c(NS(=O)(=O)c2cccs2)cccc1-c1nc2cccnc2s1	i	0.95	x	x	x	x	106.5
CCOC(=O)CC(NC(=O)CCc1c(C)nc2ncnn2c1C)c1ccc(OC(C)C)cc1 (stereo unspecified)	i	1.13	-3.5	x	x	x	98.8
O=C(NCc1ccccc1)C1=C[C@@H](C2CCCCC2)C[C@@H](OCc2ccc(CO)cc2)O1	i	0.75	5.9	x	x	x	105.0
COc1ccc(Cc2nnc(N/N=C/c3ccc(Br)cc3)[nH]c2=O)cc1OC	i	0.83	x	x	x	x	93.3
COc1cccc(Nc2nc(-c3sc(N)nc3C)cs2)c1	i	0.98	18.5	-1.1	-402.9	51.4	101.8
O=Cc1ccc(OC2OCCOC2Oc2ccc(C=O)cc2)cc1 (stereo unspecified)	i	0.94	-12.2	-0.3	-11.5	153.3	109.1
Cc1nnc(SCCn2c(N3CCCCCC3)nc3c2c(=O)[nH]c(=O)n3C)s1	i	1.02	-8.9	-0.3	30.2	80.5	106.9
CCOC(=O)C1CSC(CC(=O)Nc2ccc(OC(F)(F)F)cc2)C(=O)N1 (stereo unspecified)	i	1.03	x	x	x	x	103.8
CC(C)(C)C(=O)c1cn(CC(=O)NCc2ccc3c(c2)OCO3)c2ccccc12	i	0.95	0.9	0.1	-7.1	142.5	102.4
CCN(c1ccccc1)S(=O)(=O)c1ccc(NC(=O)C(C)(C)C)cc1	i	0.95	3.3	-1.3	26.7	143.5	105.4
O=C(Nc1cccnc1)C1=NN(C2CCS(=O)(=O)C2)C(=O)CC1 (stereo unspecified)	i	1	2.9	x	x	x	98.9

Retrieved by structure from above (7):
SMILES	HSV augment	HSV augment primary fold	PKD1 kinase inh	GALR2 ag	INS promoter inh	INS promoter inh cell count	RGS16-Gao
COc1cccc(Nc2nc(-c3sc(N)nc3C)cs2)c1	i	0.98	18.5	-1.1	-402.9	51.4	101.8
CC(C)(C)C(=O)c1cn(CC(=O)NCc2ccc3c(c2)OCO3)c2ccccc12	i	0.95	0.9	0.1	-7.1	142.5	102.4
COc1ccc(C)cc1NC(=O)C1C2C=CC(C2)C1C(=O)O (stereo unspecified)	i	0.9	-2.6	-3.2	13.6	146.3	79.5
CCN(CC)c1ccc(C2C3CCCCC3(O)CCN2C(=O)c2cccs2)cc1 (stereo unspecified)	i	0.97	3.1	-0.4	x	x	100.1
CCOC(=O)C1CSC(CC(=O)Nc2ccc(OC(F)(F)F)cc2)C(=O)N1 (stereo unspecified)	i	1.03	x	x	x	x	103.8
COc1ccc(CN(CCN2CCOCC2)C(=O)c2c(F)cccc2F)cc1OC	i	0.88	6.5	0.6	x	x	98.3
O=C(NC(=S)Nc1ccccc1Cl)c1cncc(C#Cc2ccccc2)c1	i	1.05	x	x	x	x	103.1

The results go on.
SMILES	HSV augment	HSV augment primary fold	PKD1 kinase inh	GALR2 ag	INS promoter inh	INS promoter inh cell count	RGS16-Gao
CCOC(=O)c1sc2nc[nH]c(=O)c2c1C	i	1.02	-3.6	1.0	41.9	102.4	100.7
Cc1ccc(CN2C(=O)CCC2C(=O)NCCN2CCN(c3cccc(Cl)c3)CC2)cc1 (stereo unspecified)	i	1.24	x	x	x	x	103.8
COc1cccc(Cn2c(=O)sc3ccccc3c2=O)c1	i	1.03	-7.1	x	x	x	98.2
CNC(=O)COC(=O)c1ccccc1Nc1ccccc1	i	0.91	-3.4	x	x	x	99.7
COc1ccccc1Nc1ncc(C(C)=O)c(C)n1	i	0.88	8.4	-1.6	-24.2	110.8	105.7
CN(CCc1ccccn1)C(=O)c1ccc(OC(F)(F)F)cc1	i	0.96	-3.9	x	-16.7	118.9	109.0
Cc1cc(Cl)c(S(=O)(=O)Nc2ccc(S(=O)(=O)N3CCOCC3)cc2)cc1OCC(N)=O	i	0.88	-2.6	x	x	x	100.7
Cc1ccc([N+](=O)[O-])cc1N=Nc1c(-c2ccc([N+](=O)[O-])cc2)[nH]n(C(N)=S)c1=O	i	0.7	-1.4	x	x	x	100.3
COc1ccc(/C(C)=N/NC(=O)CNC(=O)C2COc3ccccc3O2)c(OC)c1 (stereo unspecified)	i	1.01	x	x	x	x	103.0
O=C(NCCc1ccccc1)C1CCN(Cc2ccccc2F)CC1	i	1	-1.9	-0.7	x	x	104.0

Among those listed so far, these contain a cyano group:
SMILES	HSV augment	HSV augment primary fold	PKD1 kinase inh	GALR2 ag	INS promoter inh	INS promoter inh cell count	RGS16-Gao
COC(=O)C1C(=O)NC(SC)=C(C#N)C1c1ccccc1F (stereo unspecified)	i	0.95	-8.4	-2.4	-32.0	85.3	102.4
Cc1ccccc1N1CCN(Cc2c(C#N)c3ccccc3n2C)CC1	i	0.96	-2.0	0.5	x	x	127.2
C=CCOC(=O)C1=C(C)OC(N)=C(C#N)C1c1c(C)nn(-c2ccccc2)c1Cl (stereo unspecified)	i	0.91	-8.1	0.3	x	x	93.5
N#C/C(=C/c1ccc(Oc2ccc([N+](=O)[O-])cn2)cc1)C(=O)N1CCOCC1	i	1.08	-2.1	-1.0	23.7	151.3	102.0
